Anaer choline gr: choline-fed anaerobic bacterial growth inhibition; Gram-negative bacterium anaerobic choline minimal medium, absorbance growth; stronger effect = lower value; many inactives read as strong as hits in the columns shown; 55,000 tested, 0.2% active; calls only;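 active = growth z-score on choline under -2 at 7 or 20 h with little or no fall on glycerol, limits in tiers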;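 also: stock transfer was 300 nL into about 50 µL; the organism is E. coli; final concentration not given here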
Anaer choline gr early: also measured in Anaer choline gr; calls as there; z-score; measured here: choline growth z-score, timepoint 1;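 score of optical density at 7 h as mean of two plates; lower means less growth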
An asterisk follows results filed as active; i = inactive; & = joins results of further samples. Only part of the results is shown; count on the stated rates, not on these rows.

SMILES | Anaer choline gr | Anaer choline gr early
O=C(NCc1csc(-c2ccccc2)n1)[C@H]1CSCN1C(=O)C1CCCC1 | i | -0.66
CCC(C)NC(=O)c1noc2c1COc1ccc(C)cc1-2 (stereo unspecified) | i | 0.1
CCCCNC(=O)c1cccc(-c2cc(N3CCCC3)ncn2)c1 | i | -0.46
CC1CCc2c(sc3nc(CCC(=O)NCCC4=CCCCC4)[nH]c(=O)c23)C1 (stereo unspecified) | i | -0.08
O=C(NCCc1nc2ccccc2[nH]1)c1ccc(N2CCCN(Cc3ccc(F)cc3)C2=O)cc1 | i | 0.64
CC1CCC(NC(=O)C2(C)Cn3c(nc4ccccc43)C(=O)N2CC2CCCO2)CC1 (stereo unspecified) | i | 0.89
O=C(Nc1ccc2c(c1)OCCO2)Nc1nnc(CC(=O)N2CCCC2)s1 | i | 0.57
Cc1ccc(CNS(=O)(=O)c2cc3c4c(c2)CCN4C(=O)CC3)cc1 | i | 0.08
C=CCOc1ccc(C2CC(=O)Nc3n[nH]c(C)c32)cc1 (stereo unspecified) | i | -0.33
COc1ccc(Oc2cc(-c3cccc(C(=O)NC4CC4)c3)ncn2)cc1 | i | 0.34
O=C(NC1CC1)C1=C2CCCN2c2ccc(F)cc2S1(=O)=O | i | -0.94
Cc1noc(-c2cccnc2N2CCN(C(c3ccccc3)c3ccccc3)CC2)n1 | i | 0.28
CN(C)S(=O)(=O)c1ccc2c(c1)nc(C(F)(F)F)n2CCC(=O)Nc1ccc(Cl)cc1 | i | -0.16
Cn1c(C(=O)NCCc2c[nH]c3ccccc23)cc2sccc21 | i | 1.6
COc1ccc(C2=CC(c3ccc(C)cc3)n3ncc(C(=O)Nc4ccccc4)c3N2)cc1 (stereo unspecified) | i | -0.28
Cc1cc2c(cc3n2CC(C)(C(=O)NC2CCCCC2)N(CCN(C)C2CCCCC2)C3=O)o1 (stereo unspecified) | i | 0.35
O=C(Nc1ccc2c(c1)CN(Cc1ccccc1)C2)Nc1ccccc1Cl | i | -0.92
Cc1nc2cccnc2n1-c1cc(C(=O)NC2CC2)ccc1Cl | i | -0.68
CCOC(=O)c1ncn2c1CN(C)C(=O)c1cc(F)ccc1-2 | i | -0.35&1&-0.76&0.79
CCc1nc(-c2cc(S(=O)(=O)N3CCCC(C(=O)NC4CC4)C3)c(C)s2)no1 (stereo unspecified) | i | 0.81
COc1cc(NC(=O)C(C)Oc2cc(C(F)(F)F)c3c(C)nn(C)c3n2)cc(OC)c1 (stereo unspecified) | i | 1.6
O=S1(=O)N=CN(c2ccc(F)cc2)c2ncccc21 | i | -0.95
CCOC(=O)Cn1nc2ccc(S(=O)(=O)N3CCC(C)CC3)cn2c1=O | i | -0.28
O=C1COc2ccc(S(=O)(=O)N3CCCC(C(=O)NC4CCCCC4)C3)cc2N1 (stereo unspecified) | i | 0.21
CCCOc1ccc(CNC(=O)c2ccc(Nc3ncc(-c4cccc(F)c4)cn3)cc2)cc1 | i | 0.74
CCN1CCN(Cc2nc3nc(C)cc(N4CCC(C)CC4)n3n2)CC1 | i | 1.2
COc1ccc(NC(=O)c2nnc(C3CCN(S(=O)(=O)c4ccc(C)cc4)CC3)s2)cc1 | i | -1
CCS(=O)(=O)c1ncc(Cl)c(C(=O)Nc2sc3c(c2C(=O)NC)CCCC3)n1 | i | -0.83
CCCCC1CCC(C(=O)NCc2csc(-c3ccc(OC)cc3)n2)CC1 (stereo unspecified) | i | 0.02
C=CCn1nnc(NCc2ccc(-c3ccccc3Cl)o2)n1 | i | -0.57
CCOC(=O)C1CCN(C(=O)c2cc3c(=O)n(C)c4cc(Cl)ccc4c3s2)CC1 | i | -0.22
CC(C)c1cc(C2CCCN2S(=O)(=O)Cc2ccccc2)on1 (stereo unspecified) | i | -0.46
CN(CCc1noc(COc2ccccc2F)n1)C(=O)COc1ccc(F)cc1 | i | 0.48
CCN(CC)S(=O)(=O)c1c[nH]c(=O)[nH]c1=O | i | 0.68
CC(=O)Nc1cc(Cl)ccc1OCc1cc(=O)n2oc(C)cc2n1 | i | -2.2
COc1ccc(C2C(C(=O)N3CCN(c4ccccc4OC)CC3)CCC(=O)N2c2ccc(OC)cc2)cc1 (stereo unspecified) | i | -0.02
CCCNC(=O)c1ccc(Cn2c(SCC(=O)Nc3cccc(OC)c3)nc3ccccc3c2=O)cc1 | i | -0.38
O=c1[nH]cc(S(=O)(=O)N2CCCCCC2)c(=O)[nH]1 | i | 0.38
O=C(Nc1ccc2c(c1)OCO2)C1CCCN(c2nc3cccnc3s2)C1 (stereo unspecified) | i | -0.1
Cc1nnc(NC(=O)CSc2c(C(C)C)cnc3c2c(=O)n(C)c(=O)n3C)s1 | i | 0.31
CN(CCc1noc(C(=O)NCc2ccccc2)n1)C(=O)c1cc(-c2ccc(F)cc2)on1 | i | -0.24
Cn1c(=O)sc2cc(S(=O)(=O)N3CCN(C(=O)c4ccsc4)CC3)ccc21 | i | -0.39
O=C(Nc1ccc(Br)cc1F)N1CCN(Cc2nc3cccnc3n2-c2ccccc2)CC1 | i | -0.08
CCCCCn1c(=O)c2sccc2n2c(CCC(=O)NCCc3c[nH]c4ccccc34)nnc12 | i | -0.69
COc1ccc(N2CC(c3nnc(NC(=O)Cc4cccc(OC)c4)o3)CC2=O)cc1 (stereo unspecified) | i | 0.32
COc1ccc(C2C(C(=O)Nc3ccc(F)cc3F)c3ccccc3C(=O)N2c2ccc(OC)cc2)cc1 (stereo unspecified) | i | 1
C1=Cn2nc(/C=C/c3c[nH]c4ccccc34)nc2-c2ccccc2O1 | i | 0.26
CC(C)c1cc(C2CCCN2C(=O)Nc2ccc(F)cc2F)no1 (stereo unspecified) | i | -0.24
CCOC(=O)c1noc2ncn(CC(=O)Nc3ccc(F)cc3F)c(=O)c12 | i | -0.99
COc1ccc2ncc(S(=O)(=O)c3ccccc3)c(N3CCCCC3C)c2c1 (stereo unspecified) | i | -0.56
The list goes on:
SMILES | Anaer choline gr | Anaer choline gr early
Cc1nn(-c2cccc(F)c2)c2sc(C(=O)Oc3ccc4sc(=O)oc4c3)cc12 | i | -0.83
Cc1cccc(NC(=O)CCc2c(C)[nH]n(-c3nc(C)cs3)c2=O)c1 | i | -0.49
COC(=O)c1c(NC(C)=O)c2c(C)c(C)sc2n1CC(=O)NCCc1ccccc1 | i | -0.2
O=C(CN1c2ccc(F)cc2-c2ccccc2S1(=O)=O)NCCSc1ccccc1 | i | 1.7
CC(C)c1cc(C2CCCN2S(=O)(=O)c2ccc(Br)cc2)no1 (stereo unspecified) | i | 1.1
COc1cccc(CC2C(=O)Nc3ccccc32)c1 (stereo unspecified) | i | 0.42
CCOC(=O)c1ccc(NC2c3ncccc3C(=O)N2c2ccc(OC)cc2)cc1 (stereo unspecified) | i | 0.09
Cc1ccc(Cc2nc3nc4c(c(Nc5cc(C)ccc5C)n3n2)CCCC4)cc1 | i | 2.1
O=C(Nc1ccc(F)cc1)c1nc(N2CCOCC2)c2oc3ccccc3c2n1 | i | 0.82
Fc1ccc(OCc2nnc3sc(-c4c[nH]c5ccccc45)nn23)cc1 | i | -0.12

In a second layout: entries from further up
CCOC(=O)Cn1nc2ccc(S(=O)(=O)N3CCC(C)CC3)cn2c1=O
  Anaer choline gr: i; Anaer choline gr early: -0.28

CC1CCC(NC(=O)C2(C)Cn3c(nc4ccccc43)C(=O)N2CC2CCCO2)CC1 (stereo unspecified)
  Anaer choline gr: i; Anaer choline gr early: 0.89

Cc1ccc(Cc2nc3nc4c(c(Nc5cc(C)ccc5C)n3n2)CCCC4)cc1
  Anaer choline gr: i; Anaer choline gr early: 2.1

The results go on:
SMILES | Anaer choline gr | Anaer choline gr early
O=C(Cn1c(=O)c(C(F)(F)F)nc2ccccc21)Nc1ccc(Cl)cc1 | i | -0.05
Nc1c(-c2ccccc2)nc2sc(N3CCNCC3)nn12 | i | -0.92
CC(C)Cn1nc2c(S(=O)(=O)N3CCN(c4ccc(F)cc4)CC3)cccn2c1=O | i | 0.3
C=Cc1ccc(CSc2nc3c(c(=O)[nH]2)CN(Cc2ccccc2)CC3)cc1 | i | -0.24
CC1(C)C(=O)N(CC(=O)N2CCOCC2)c2ccc(S(=O)(=O)N3CCCCC3)cc21 | i | 0.37
Cc1ccccc1NC(=O)C1CC2CSCN2C12C(=O)Nc1ccccc12 (stereo unspecified) | i | -0.08
CCSc1nc2n(n1)C(c1cccc(Br)c1)C(C(=O)Nc1ccccc1C)=C(C)N2 (stereo unspecified) | i | -1.6
O=C(c1ccc2c(c1)OCO2)N1CCCC1c1ccc(F)cc1 (stereo unspecified) | i | -0.17
O=C(c1cccc(N2C(=O)CCS2(=O)=O)c1)N1CCN(Cc2ccc3c(c2)OCO3)CC1 | i | -0.55
O=C(Nc1ccccc1C(=O)N1CCCC1)c1nsc2ccccc12 | i | 0.44

5 of the compounds above, with two lines to a compound:
Below each SMILES: Anaer choline gr | Anaer choline gr early
- CC(C)Cn1nc2c(S(=O)(=O)N3CCN(c4ccc(F)cc4)CC3)cccn2c1=O
  i | 0.3
- C=Cc1ccc(CSc2nc3c(c(=O)[nH]2)CN(Cc2ccccc2)CC3)cc1
  i | -0.24
- CC1(C)C(=O)N(CC(=O)N2CCOCC2)c2ccc(S(=O)(=O)N3CCCCC3)cc21
  i | 0.37
- Cc1ccccc1NC(=O)C1CC2CSCN2C12C(=O)Nc1ccccc12 (stereo unspecified)
  i | -0.08
- CCSc1nc2n(n1)C(c1cccc(Br)c1)C(C(=O)Nc1ccccc1C)=C(C)N2 (stereo unspecified)
  i | -1.6

Arranged by length of the SMILES (ascending): some entries from above
SMILES | Anaer choline gr | Anaer choline gr early
Nc1c(-c2ccccc2)nc2sc(N3CCNCC3)nn12 | i | -0.92
C=Cc1ccc(CSc2nc3c(c(=O)[nH]2)CN(Cc2ccccc2)CC3)cc1 | i | -0.24
CC(C)Cn1nc2c(S(=O)(=O)N3CCN(c4ccc(F)cc4)CC3)cccn2c1=O | i | 0.3

Next structures.
SMILES | Anaer choline gr | Anaer choline gr early
O=C(Nc1ccc(F)cc1)c1ccc(C2Nc3ccccc3S(=O)(=O)N2)cc1 (stereo unspecified) | i | 1.7
COc1ccc(-c2nc(OC)c3c4c(sc3n2)CCCC4)cc1 | i | 0.37
CCC(=O)NCc1nc2ccccc2n1C(C)c1ccccc1 (stereo unspecified) | i | 0.59
Cc1nc(-c2ccc(F)cc2)sc1-c1ccc(SCc2ccncc2)nn1 | i | 3.8
COc1ccc(-c2nc3c(s2)CN(C(=O)c2ccccc2Br)CC3)cc1 | i | -2
Cc1noc(C)c1C1CCCN1C(=O)c1ccn(C)n1 (stereo unspecified) | i | 0.33
CC(C)c1nnc2ccc(N3CCCC3)nn12 | i | -0.56
COc1ccc(S(=O)(=O)N2CCc3cc4cc(C)ccc4nc32)cc1C | i | 0.45
CCOC(=O)c1cc(Cn2cnc3nc4c(cc3c2=O)CCCC4)on1 | i | -0.07
Cc1cc(C)n2nc(CN(C(=O)C(C)(C)C)c3ccc(F)cc3)nc2n1 | i | -1.6
Cc1ccc(NC(=O)N2CCSc3ncccc32)c(Cl)c1 | i | 0.36
CCOCCCNC(=O)C1CCN(c2ncc(-c3cccc(C)c3)cn2)CC1 | i | 1.5
CC1CCN(S(=O)(=O)c2ccc(-c3nnc(C(=O)NCCCN4CCCC4)o3)cc2)CC1 | i | -0.6
COc1ccc2oc(C)c(C(=O)Nc3ccc(N(C)C(C)=O)cc3)c2c1 | i | -0.89
Cc1cc2nnc(SC(C)C(=O)Nc3ccccc3Cl)n2c2ccccc12 (stereo unspecified) | i | 0.67
Cc1csc(-c2cc(NC(=O)C3(c4ccccc4)CC3)c(C)s2)n1 | i | 0.35
C[C@H](NC[C@H](O)CP(=O)(O)Cc1ccccc1)c1ccc(Cl)c(Cl)c1 | i | 0.01
CN(C)CC1CCN(C(=O)N2CCCCCC2)CC1 | i | -0.4
COc1ccc(N2CC(C(=O)Nc3ccc(-c4nc(C)no4)cc3)CC2=O)cc1 (stereo unspecified) | i | 0.36
Cc1cc(NCCC(C)C)n2ncc(-c3ccc(F)cc3)c2n1 | i | 2
Cc1ccc(NC(=O)N(C)Cc2nc3cc(C(=O)N(C)C)ccc3n2C)cc1 | i | -0.2
c1cc(-c2nnc3sc(-c4csc5c4CCCC5)nn23)ccn1 | i | -0.32
CCCCCNC(=O)c1ccc(CN2CCc3c(c(C(=O)N4CCCC4)nn3C)C2)cc1 | i | -0.3
Cc1ccc(C(=O)Nc2cc3[nH]c(=O)[nH]c3cc2C)cc1 | i | 0.31
O=C(CSc1nnc(NC(=O)NC2CCCCC2)s1)NCc1ccc(F)cc1 | i | 0.3
COc1ccc(Nc2ncc3c(n2)CCNC3)c(OC)c1 | i | -1.2
Cc1nc2sccn2c(=O)c1NC(=O)Cc1ccc(F)cc1 | i | 0.29
O=C1c2ccncc2C(=O)N1Cc1ccc(F)cc1 | i | 1
Cc1ccc(-c2nc3sc(CCNS(=O)(=O)c4ccc(C)c(C)c4)c(C)n3n2)cc1 | i | 0.07
O=C(NCc1c(-c2ccccc2)nc2n1CCS2)c1ccccc1 | i | 0.31
CC(=O)Nc1ccc(C(=O)N(Cc2cccnc2)C2(C(=O)NCc3ccccc3)CCN(C(C)=O)CC2)cc1 | i | -0.76
O=C(CC1CCN(C(=O)Nc2cccc(Cl)c2)CC1)NCc1ccccc1 | i | -0.71
CN(C(=O)c1cccc(Oc2ccnc(-c3ccc(F)cc3)n2)c1)C1CCCCC1 | i | -0.35
CNS(=O)(=O)c1cn(CC(=O)N(C)Cc2ccccc2)cc1S(=O)(=O)NC | i | 0.63
COc1ccc(-c2csc(-c3nc(-c4ccc(OC)c(OC)c4)cs3)n2)cc1 | i | -1.4
COc1ccc(-c2noc(-c3cccc(NC(=O)C4CC(=O)N(c5ccccc5)C4)c3)n2)cc1 (stereo unspecified) | i | -0.3
O=C(Nc1ccc(F)cc1F)c1nnc(C2CCN(C(=O)C3CCCCC3)CC2)s1 | i | -0.26
Cn1cc(-c2nc(-c3ccccc3)no2)c(=O)c2cc(F)c(N3CCCCC3)cc21 | i | 0.36
CCCC(=O)NCc1nc2cccnc2n1CCOC | i | -2.2

Compound activity deposited in PubChem BioAssay by ICCB-Longwood Screening Facility, Harvard Medical School.
